Compound activity from PubChem.
STK33 kinase inh – human STK33 kinase inhibition; 0.073% of 320,000 active; Q9BYT3; inhibition, % at 10 µM; AID 2661; purified STK33, MBP phosphorylation, ADP-Glo luminescence;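 active = inhibition at or above 25%, using the most active replicate where run in duplicate; inactive = inhibition below 25%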
Target sequence (Q9BYT3 whole entry, looked up): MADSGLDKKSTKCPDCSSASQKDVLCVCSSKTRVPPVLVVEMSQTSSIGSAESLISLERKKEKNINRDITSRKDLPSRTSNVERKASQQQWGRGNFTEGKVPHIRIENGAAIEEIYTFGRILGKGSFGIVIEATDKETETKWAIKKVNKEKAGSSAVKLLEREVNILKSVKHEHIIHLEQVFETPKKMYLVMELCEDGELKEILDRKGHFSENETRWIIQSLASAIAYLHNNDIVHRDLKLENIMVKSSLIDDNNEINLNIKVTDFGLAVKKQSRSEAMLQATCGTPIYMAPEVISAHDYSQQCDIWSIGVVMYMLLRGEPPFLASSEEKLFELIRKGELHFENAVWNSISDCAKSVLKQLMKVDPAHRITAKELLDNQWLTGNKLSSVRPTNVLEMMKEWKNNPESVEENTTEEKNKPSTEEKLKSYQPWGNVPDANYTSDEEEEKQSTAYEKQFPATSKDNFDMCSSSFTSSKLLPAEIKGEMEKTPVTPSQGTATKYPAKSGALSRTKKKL
* = called active by the depositor.

The opening 19 compounds, ahead of the listing:
SMILES	STK33 kinase inh
Cc1cccc(C(=O)OCC(=O)NN2C(=O)NC3(CCCCC3)C2=O)c1	-0.5
COc1ccc(OCC(=O)Nc2cccc(S(=O)(=O)N(C)c3ccccc3)c2)c([N+](=O)[O-])c1	-2.4
O=S1(=O)c2ccccc2C(CCO)N1Cc1ccccc1 (stereo not given)	2.1
CC1CCC(=NNC(=O)Cc2cccn2C)CC1 (stereo not given)	1.3
O=C(CCl)N1N=C(c2cccs2)CC1c1ccco1 (stereo not given)	-0.3
O=C(CSc1nc2ccccc2n1CC(=O)N1CCCCC1)N1CCCCC1	-3.0
O=C1OCCC1Sc1nc2ccccc2n1-c1ccccc1 (stereo not given)	-0.5
CC(C)(C)c1csc(NC(=O)c2ccc3nccnc3c2)n1	-0.7
O=C(NC1CCCCC1)C1CN(S(=O)(=O)c2ccccc2)CCN1S(=O)(=O)c1ccccc1 (stereo not given)	-0.6
O=c1c2cc(N3CCOCC3)ccc2[nH]c(=S)n1CC1CCCO1 (stereo not given)	0.2
COc1cccc(NC(=O)CC2S/C(=N\S(=O)(=O)c3ccccc3)N(c3ccccc3)C2=O)c1 (stereo not given)	-0.8
CCOc1ccc(C(=O)Nc2ccc(N3CCN(C)CC3)cc2)cc1Br	-0.6
Cc1ccc2ncnc(Nc3ccccc3)c2c1	2.5
O=C(O)c1ccccc1C(=O)NNc1ccc(Cl)cc1Cl	-0.4
CCC(CC)C(=O)Nc1cccc(/C(C)=N\NC(=O)c2ccc(C)s2)c1	-3.4
COc1cc2cnc(-c3ccccc3)c(-c3ccc(C#N)cc3)c2cc1OC	-0.6
COc1cccc(CN(C)C(=O)c2cc(S(=O)(=O)NCc3ccccc3)ccc2C)c1OC	1.9
CCOC(=O)c1sc(=S)n(-c2ccccc2)c1SC	-0.4
C=COCCNC(=S)Nc1cccc(Cl)c1	-4.0

This part in full, from the start:
SMILES	STK33 kinase inh
Cc1cccc(C(=O)OCC(=O)NN2C(=O)NC3(CCCCC3)C2=O)c1	-0.5
COc1ccc(OCC(=O)Nc2cccc(S(=O)(=O)N(C)c3ccccc3)c2)c([N+](=O)[O-])c1	-2.4
O=S1(=O)c2ccccc2C(CCO)N1Cc1ccccc1 (stereo not given)	2.1
CC1CCC(=NNC(=O)Cc2cccn2C)CC1 (stereo not given)	1.3
O=C(CCl)N1N=C(c2cccs2)CC1c1ccco1 (stereo not given)	-0.3
O=C(CSc1nc2ccccc2n1CC(=O)N1CCCCC1)N1CCCCC1	-3.0
O=C1OCCC1Sc1nc2ccccc2n1-c1ccccc1 (stereo not given)	-0.5
CC(C)(C)c1csc(NC(=O)c2ccc3nccnc3c2)n1	-0.7
O=C(NC1CCCCC1)C1CN(S(=O)(=O)c2ccccc2)CCN1S(=O)(=O)c1ccccc1 (stereo not given)	-0.6
O=c1c2cc(N3CCOCC3)ccc2[nH]c(=S)n1CC1CCCO1 (stereo not given)	0.2
COc1cccc(NC(=O)CC2S/C(=N\S(=O)(=O)c3ccccc3)N(c3ccccc3)C2=O)c1 (stereo not given)	-0.8
CCOc1ccc(C(=O)Nc2ccc(N3CCN(C)CC3)cc2)cc1Br	-0.6
Cc1ccc2ncnc(Nc3ccccc3)c2c1	2.5
O=C(O)c1ccccc1C(=O)NNc1ccc(Cl)cc1Cl	-0.4
CCC(CC)C(=O)Nc1cccc(/C(C)=N\NC(=O)c2ccc(C)s2)c1	-3.4
COc1cc2cnc(-c3ccccc3)c(-c3ccc(C#N)cc3)c2cc1OC	-0.6
COc1cccc(CN(C)C(=O)c2cc(S(=O)(=O)NCc3ccccc3)ccc2C)c1OC	1.9
CCOC(=O)c1sc(=S)n(-c2ccccc2)c1SC	-0.4
C=COCCNC(=S)Nc1cccc(Cl)c1	-4.0
Cc1nc(NCc2ccco2)c2oc3ccccc3c2n1	1.7
O=C(NCc1ccco1)c1nn2c(C(F)(F)F)cc(-c3cccs3)nc2c1Br	0.7
O=Nc1ccc(NOC(=O)c2ccccc2Br)cc1	0.2
O=C(C1CCN(Cc2cc(Cl)ccc2O)CC1)N1CCN(Cc2ccccc2)CC1	-1.5
COc1ccc(-c2csc3ncnc(N4CCN(c5ccc(OC)cc5)CC4)c23)cc1	-1.5
CC(C)NCC(O)COc1cccc2[nH]ccc12 (stereo not given)	-1.3
COCCn1c(=NC(=O)CSC(C)=O)sc2cc(OC)ccc21	0.3
COC(=O)c1cc(OC(=O)c2ccc(=O)[nH]c2)cc(C(=O)OC)c1	-2.1
O=C(Cc1ccccc1)NC(NC(=O)Cc1ccccc1)c1cccc([N+](=O)[O-])c1	0.0
COc1ccccc1N(CN1CCCC1=O)C(=O)c1c(F)cccc1Cl	-2.0
C/C(=N/OCC(=O)Nc1ccccc1)c1cccs1	0.3
CC(C)CCNC(=O)c1c[nH]c2ccc(S(=O)(=O)N3CCOCC3)cc2c1=O	-2.4
COc1cccc(CC(NC(C)=O)C(=O)NC2CCN(C(=O)C3CC3)CC2)c1OC (stereo not given)	-3.1
COc1ccc(/C=N/n2c(-c3ccc(C)cc3)n[nH]c2=S)cc1OC	-0.2
CC(CN1CCOCC1)OC(=O)C(C)(c1ccccc1)c1ccccc1 (stereo not given)	-3.1
CC1CCN(C(=O)CN(C2CCCCC2)S(C)(=O)=O)CC1	-2.8
O=C(COc1ccccc1Cl)Nc1ccc(N2CCN(C(=O)c3ccccc3)CC2)cc1	-2.2
Cc1ccc(C(=O)COC(=O)CN2C(=O)C3C4C=CC(C4)C3C2=O)cc1[N+](=O)[O-] (stereo not given)	-0.8
O=C(NCCc1ccccc1)c1ccc2[nH]c(=O)c(=O)[nH]c2c1	-0.8
CCc1ccnc(NS(=O)(=O)c2ccc3c(c2)CCO3)c1	-1.6
CCN(CC)S(=O)(=O)c1ccc(Nc2nc3ccccc3n3nnnc23)cc1	1.1

The final 2 records of the part above open the next one.
SMILES	STK33 kinase inh
CCc1ccnc(NS(=O)(=O)c2ccc3c(c2)CCO3)c1	-1.6
CCN(CC)S(=O)(=O)c1ccc(Nc2nc3ccccc3n3nnnc23)cc1	1.1
O=C(CSc1nncs1)NCCNC(=O)CSc1nncs1	-0.3
Cc1cc(=O)[nH]c(SCC(N)=O)c1C#N	-2.3
COc1ccc(-c2nc(-c3cccs3)no2)cc1	1.3
C/C(=N\NC(=O)c1ccc(N/N=C(\C)c2ccncc2)cc1)c1ccncc1	4.3
CCOC(=O)C1CCN(S(=O)(=O)c2c(C)n(C)c(=O)n(C)c2=O)CC1	-0.7
Cn1nc(C(=O)NNC(=O)c2ccc(Cl)cc2)ccc1=O	-0.7
O=[N+]([O-])c1cnccc1NC1CCCCC1	-1.4
CS(=O)(=O)N1CCC(C(=O)NCCC2=CCCCC2)CC1	-1.9
COc1cccc(CC(=O)NNC(=O)c2c(-c3ccccc3)noc2C)c1	0.3
CCn1c2ccccc2c2cc(NC(=O)COC(=O)c3ccc(O)cc3)ccc21	-1.3
COc1cc(NC(=O)CSc2nc3ncnc(N)c3[nH]2)c(C(=O)O)cc1OC	-0.7
CCc1cc(C(N)=O)c(NC(=O)c2ccc(OC)cc2)s1	2.3
CC(=O)OCc1c(C)cc(C)c(/C=C(/C#N)C(N)=O)c1C	-0.1
N=c1n(CCN2CCCC2)c2ccccc2n1CC(O)c1ccc(Cl)c(Cl)c1 (stereo not given)	-1.2
CC1CCCCN1CCn1c(=S)[nH]c2cc3c(cc2c1=O)OCO3 (stereo not given)	-1.1
Cc1ccc(C)c(NC(=S)NC2CC3CCCC(C2)N3CC(C)C)c1 (stereo not given)	-1.9
COC(=O)c1ccccc1NC(=O)C(=O)NCC1CCCO1 (stereo not given)	-0.2
COC(=O)c1ccccc1S(=O)(=O)C(C)(C)C	-0.2
CCc1nnc(NC(=O)CCC(=O)N2CCN(c3cc(C)ccc3C)CC2)s1	-0.6
CC(=O)c1cccc(NC(=O)CCc2nnc3ccc(N4CCOCC4)nn23)c1	1.2
CC1(C)CC(=O)C(CC(=O)NC(=O)NCc2ccccc2)=C(O)C1	0.2
O=C(CCCN1CCC(c2ccccc2)C1)c1ccc2c(c1)OCCO2 (stereo not given)	0.8
O=C(c1cccs1)n1nc(-c2ccco2)nc1SCc1ccccc1	-0.5
O=C(CCCOc1ccc(Cl)cc1)N1CCCCCC1	-0.9
COc1cccc(-n2nnnc2SCC(=O)Nc2nc3c(s2)CCCC3)c1	0.5
CN(c1cccc(NC(=O)c2ccccc2N(C)S(C)(=O)=O)c1)S(C)(=O)=O	-0.7
CCSc1nnc(CCNC(=O)OC(C)(C)C)o1	2.5
O=[N+]([O-])c1ccc(C2CCCC/C2=N/OCc2ccc(F)cc2)c([N+](=O)[O-])c1 (stereo not given)	-0.4
CC1(C)CC(=O)C/C(=N\NC(=O)Cc2ccccc2)C1	-0.2
CC1CCN(C(=O)COC(=O)c2n[nH]c(=O)c3ccccc23)CC1	-0.5
Cc1ccc(-c2nc(C#N)c(NCCN3CCCCC3)o2)cc1	0.5
COc1ccc(C)cc1NC(=O)CSc1nnc2ccc(-c3cccnc3)nn12	-2.9
COc1ccc([N+](=O)[O-])cc1NC(=O)C(C)OC(=O)c1cccnc1Cl (stereo not given)	-0.3
COc1ccc(C)cc1NC(=O)CCc1c(C)nn(-c2ccc(N3CCCCC3)nn2)c1C	-0.5
O=C(/C=C/c1ccco1)N/C(=C\c1ccccc1)C(=O)NCCc1nc2ccccc2[nH]1	-0.6
c1coc(CNc2c3c(nc4ncnn24)CCCC3)c1	1.6
COC(=O)c1cc(Cl)cc2c(CCO)c[nH]c12	2.2
Cc1cc(NC(=O)CSc2nncn2N)no1	0.3
COc1ccc(CCN(C)C(=O)CCCN2C(=O)c3cccc4cccc(c34)C2=O)cc1OC	-0.9
CC(C)c1ccc(C(=O)Nc2nnc(S(=O)(=O)N3CCOCC3)s2)cc1	-1.1
O=S(=O)(Nc1cccc(-n2cnnn2)c1)c1cnc(Cl)c(Cl)c1	-1.8
Cc1nn(S(=O)(=O)N(C)C)c(C)c1CN1C(=O)c2ccccc2C1=O	-0.9
Cc1cc2oc(=O)cc(CSc3nnc(C)n3N)c2cc1C(C)C	0.8
O=C(Nc1ccccc1C(F)(F)F)NC1CCCCCCC1	-1.6
COc1cccc(N2CC(C(=O)Nc3nnc(SCC(=O)NC4CCCC4)s3)CC2=O)c1 (stereo not given)	-0.6
Cc1nc(SCC(=O)NCc2ccco2)nc(C)c1C	-1.3
O=C(O)c1cc(-c2ccccn2)n[nH]1	-1.4
CCCc1nc([N+](=O)[O-])c(S(=O)(=O)c2ccccc2)n1CC(C)C	-1.2
CC1NC(=O)N(C)C2NC(=O)N(C)C(c3ccccc3)C12 (stereo not given)	0.5
Cc1c(Cl)c([N+](=O)[O-])nn1CC(=O)NCc1cccs1	-0.5
O=C(Nc1ccccc1-c1ccccc1)c1cnccn1	4.4
COC(=O)c1sc(NC(=O)c2ccc(C)o2)nc1C	-0.3
CSc1ccccc1NC(=O)COc1ccc(Cl)cc1C	0.4
COc1ccc(N2CCN(C(=O)COC(=O)CNC(=O)c3cccc(OC(F)F)c3)CC2)cc1	-1.2
CC(C)(C)c1cc(C(=O)NN)n(Cc2ccc(F)cc2)n1	-0.6
CC(C)COc1ccc(C(=O)Nc2ccc(N3CCOCC3)cc2N2CCOCC2)cc1	-0.9
NS(=O)(=O)c1ccc(NC(=S)NCc2ccc(Cl)cc2)cc1	-2.1
CCOC(=O)N1CCN(C(=O)c2ccc(NS(=O)(=O)c3ccc4[nH]c(=O)[nH]c4c3)cc2)CC1	0.9
CCOC(=O)C1CCCN(C(=O)CCNS(=O)(=O)c2cc(Br)cnc2N)C1 (stereo not given)	-0.9
CCCCn1cnc2c(cnn2-c2ccc(Cl)cc2)c1=O	-1.7

Other structures follow.
SMILES	STK33 kinase inh
O=C(Nc1nc2ccccc2n1CCN1CCOCC1)c1cn(-c2ccccc2)nc1-c1ccccc1	-0.7
CCOc1ccccc1N1CCN(C(=O)NC(C)c2ccc(F)c(F)c2)CC1 (stereo not given)	-0.2
CC(C)N1CCC(N2CCN(C3CCCC3)CC2CCO)CC1 (stereo not given)	-0.4
O=C(CCOc1ccccc1)N1CCN(S(=O)(=O)c2cccs2)CC1	-0.2
CC[C@H](CO)NCCN[C@H](CC)CO	-1.0
CCn1c(C)nc([N+](=O)[O-])c1C(=O)O	-1.3
O=c1c2ccccc2ncn1-c1ccc(Cl)cc1[N+](=O)[O-]	2.1
O=C(CSc1ccccn1)Nc1ccc(NC(=O)CSc2ccccn2)cc1	-1.3
COc1ccc(NC(=O)CSc2nnc(Cc3cccn3C)n2-c2ccc(F)cc2)cc1OC	0.5
Cc1ccc(-c2ccc(SCC(=O)N3CCN(c4ccccc4)CC3)nn2)cc1	-1.3
CCN(CC)Cc1c(C(=O)N/N=C/c2cccc(OCc3cccc(Cl)c3)c2)nnn1-c1nonc1N	-0.8
Cc1cccn2cc(-c3ccc(F)cc3)nc12	1.2
CCOC(=O)Cn1c(=O)oc2cc(S(=O)(=O)N3CCc4ccccc43)ccc21	-1.5
CN(C)CCCOC(=O)CCc1ccccc1	-1.1
O=C(CSC(=S)N1CCCCC1)c1c(F)cccc1F	12
COc1ccc(OC)c(C2C(C(=O)Nc3nc4ccccc4s3)=C(C)NC3=C2C(=O)CCC3)c1 (stereo not given)	-0.7
CCn1cc(CNC(=O)C2CCC(=O)N(C3CCCCCC3)C2)cn1 (stereo not given)	-2.0
CCCn1c(=O)c(F)cn(Cc2ccc(OC)c([N+](=O)[O-])c2)c1=O	-0.3
Cc1ccc(S(=O)(=O)c2nc(-c3ccc(F)cc3)oc2SCC(N)=O)cc1	-0.7
NC(=O)NC(=O)COC(=O)c1sc2ccccc2c1Cl	-4.9
COc1cccc(CNC(=O)CC2C(=O)NCCN2Cc2ccoc2)c1OC (stereo not given)	0.9
O=C(N/C(=C/c1cccs1)C(=O)N1CCCCCC1)c1ccccc1	-1.3
CC1(C)Cc2c(cnn2-c2ccccc2)C(=O)/C1=N\NC(=O)c1ccccc1O	-1.0
COc1ccc(CN2C(=NC(=O)C3CCCCC3)SC3CS(=O)(=O)CC32)cc1 (stereo not given)	1.5
COc1ccc(/C=C/C(=O)NC(=S)Nc2ccc(N3CCN(C(C)=O)CC3)cc2)cc1	-2.1
CN1CCN(NC(=O)Nc2ccc(Br)cc2)CC1	-0.7
Cc1ccccc1NC(=O)Cc1nc(COC(=O)c2cccc(O)c2)cs1	0.8
CCOC(=O)Cc1csc(NC(=S)NC(=O)c2ccc(Cl)cc2)n1	0.6
CNS(=O)(=O)c1cccc(C(=O)NC2CCCc3ccccc32)c1 (stereo not given)	-0.6
CC1(C)S[C@@H]2[C@H](NC(=O)COc3ccccc3)C(=O)N2C1C(=O)OCc1ccccc1 (stereo not given in full)	-1.8
CCCc1nc2c(C)ccc(C)c2c(N)c1CC	0.8

An excerpt; most or all hits stand in other tables.
